Screens as filed in PubChem BioAssay.
Mtb MbtI inh: MbtI salicylate synthase inhibitors, primary screen, biochemical, fluorescence intensity; P9WFX0; purified MbtI enzyme, fluorescence intensity read-out; inhibition, %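 (about 17 µg/mL by stock and volumes)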; 100,000 tested, 0.89% active;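 active = above 50% in both replicates, above 80% if mildly self-fluorescent; inactive = the rest, strongly fluorescent compounds included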;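 also: 0% = mean of negative and 100% = mean of positive controls; one replicate is shown; some compounds called inactive have numbers as strong as hits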
Target sequence (P9WFX0 whole entry, looked up): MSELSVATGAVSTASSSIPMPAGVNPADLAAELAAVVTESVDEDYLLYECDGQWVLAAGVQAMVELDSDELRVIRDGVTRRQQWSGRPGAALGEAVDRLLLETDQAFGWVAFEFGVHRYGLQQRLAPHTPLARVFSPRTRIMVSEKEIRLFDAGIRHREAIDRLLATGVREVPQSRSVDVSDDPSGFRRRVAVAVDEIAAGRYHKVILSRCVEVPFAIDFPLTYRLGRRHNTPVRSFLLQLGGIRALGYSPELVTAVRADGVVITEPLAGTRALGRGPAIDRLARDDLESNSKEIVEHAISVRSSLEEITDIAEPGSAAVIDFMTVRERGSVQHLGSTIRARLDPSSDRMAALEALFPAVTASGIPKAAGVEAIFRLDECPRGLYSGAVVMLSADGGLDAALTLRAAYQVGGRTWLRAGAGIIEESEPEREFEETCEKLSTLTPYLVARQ
PV pol inh: poliovirus RdRp elongation inhibitors, primary screen, biochemical, fluorescence polarization, total intensity; 150,000 tested, 0.66% active; Genome polyprotein (Poliovirus type 1 (strain Mahoney)), P03300; % elongation, % (compound at 16.7 µg/mL); poliovirus polymerase elongation; hits give low values; in the data active = % elongation below about 90%; also: some results filed as inactive read as strong as hits
Target sequence (P03300 1749-2209 limits assumed): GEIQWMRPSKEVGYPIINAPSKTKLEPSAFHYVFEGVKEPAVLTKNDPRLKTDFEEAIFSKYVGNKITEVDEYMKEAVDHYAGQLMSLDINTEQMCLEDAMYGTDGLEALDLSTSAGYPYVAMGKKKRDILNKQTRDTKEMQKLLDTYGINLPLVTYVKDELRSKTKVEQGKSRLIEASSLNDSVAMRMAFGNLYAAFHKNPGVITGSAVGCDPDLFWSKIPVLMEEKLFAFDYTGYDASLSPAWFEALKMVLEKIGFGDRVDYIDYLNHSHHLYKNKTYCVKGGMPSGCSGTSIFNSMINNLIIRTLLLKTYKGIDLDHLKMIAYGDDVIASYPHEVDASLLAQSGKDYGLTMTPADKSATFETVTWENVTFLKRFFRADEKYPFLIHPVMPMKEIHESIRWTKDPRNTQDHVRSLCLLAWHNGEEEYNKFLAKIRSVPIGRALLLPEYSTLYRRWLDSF
Mtb MenB inh: M. tuberculosis MenB inhibitors, primary screen, biochemical, absorbance; 1,4-dihydroxy-2-naphthoyl-CoA synthase (Mycobacterium tuberculosis (strain ATCC 25618 / …; MenB enzyme assay, absorbance read-out; some hits fall short of the stated cut; inhibition, %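 (about 12 µg/mL by stock and volumes)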; 100,000 tested, 0.43% active; AID 540299, 2011;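 active = mean of two replicates above 30%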;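 also: 0% = no compound and 100% = wells with inactive enzyme; the first replicate is given; strong numbers were not always called active; inactives centre near -10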
PV pol inh intensity: further read-out of PV pol inh, marked with its call; % elongation; measured here: total intensity read-out; formula for this scale not given here;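 total fluorescence in place of polarization; lower means less elongation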
An asterisk follows results filed as active; / = not tested or not shown.

entry	SMILES	Mtb MbtI inh	PV pol inh
1	Cc1cccc(-c2nc3s/c(=C\C4=Cc5ccccc5OC4)c(=O)n3n2)c1	-24	101
2	N#C/C(=C\c1cn(-c2ccccc2)nc1-c1ccccc1Cl)C(N)=O	-42	103
3	CCOC(=O)c1cc2c(c(CSc3nc4ccccc4c(=O)n3Cc3cccs3)c1)OCOC2	4	101
4	CCN(CC)C(=O)CSc1nc(-c2ccco2)cc(C(F)(F)F)c1C#N	89	105
5	CCn1c(SCc2nc3cc(OC)c(OC)cc3c(=O)[nH]2)nc2ccccc21	6	100
6	CC(C)n1nccc1NC(=NC1CC1)c1ccccc1	-3	105
7	O=C(CN1CCOCC1)Nc1nc(-c2ccc3c(c2)CCN3S(=O)(=O)c2ccccc2)cs1	1	104
8	CCOC(=O)N1CCN(C(=O)c2ccc3c(=O)[nH]c4c(C(=O)NC(C)C)sc(=S)n4c3c2)CC1	40	103
9	COC(=O)c1ccc(COC(=O)c2ccc(-n3cnnn3)cc2)o1	-10	103
10	O=C1ON=C(c2ccccc2)/C1=C\c1ccc2c(c1)OCO2	4	102
11	O=c1c2ccccc2nc2n1CCCN2	115	102
12	COc1cc2c(cc1OC)CN(C(=O)c1cc(=O)c3ccccc3o1)CC2	-12	103
13	Cc1c(C(=O)N(Cc2cccs2)C2CCCC2)sc2nc3n(c(=O)c12)CCCCC3	0	101
14	CCCc1ccc2c(N)c(C(=O)c3ccc(Br)cc3)sc2n1	/	103
15	CC(Sc1nc(N)cc(N)n1)C(=O)Nc1cccc(Cl)c1 (configuration not stated)	-5	100

entry	PV pol inh intensity	Mtb MenB inh
1	98	-13
2	108	-14
3	103	11
4	103	-24
5	103	18
6	108	-26
7	103	-77
8	101	-14
9	106	-5
10	105	-8
11	100	12
12	101	-22
13	100	-13
14	122	-17
15	103	-4

A draw from above in order of length of the SMILES, smallest number first.
entry	SMILES	Mtb MbtI inh	PV pol inh
2	N#C/C(=C\c1cn(-c2ccccc2)nc1-c1ccccc1Cl)C(N)=O	-42	103
1	Cc1cccc(-c2nc3s/c(=C\C4=Cc5ccccc5OC4)c(=O)n3n2)c1	-24	101
13	Cc1c(C(=O)N(Cc2cccs2)C2CCCC2)sc2nc3n(c(=O)c12)CCCCC3	0	101

entry	PV pol inh intensity	Mtb MenB inh
2	108	-14
1	98	-13
13	100	-13

Next part
entry	SMILES	Mtb MbtI inh	PV pol inh
16	O=C(CN(CCO)C(=O)c1ccc(Cl)cc1)Nc1ccc(F)cc1	/	106
17	Ic1ccc(-c2ncc3ccccn23)cc1	-1	100
18	CCOC(=O)/C(C#N)=C/c1cn(CCC#N)nc1-c1ccccc1	-3	100
19	Nc1ccc(OC(F)(F)C(F)F)c(N)c1	0	99
20	O=c1c(C=Nc2cc(Cl)ccc2O)c(O)n(C2CCCCC2)c(=O)n1C1CCCCC1	3	/
21	CCOc1ccc(CC(=O)O)cc1OCC	-4	99
22	Cc1cc2c(cc1C)C(Nc1ccccc1)=NC(C)(C)C2	-3	103
23	Cc1cc(=O)oc2cc(OCC(=O)N(C)C)ccc12	/	104
24	O=C(COC(=O)c1cccc2ccccc12)c1ccc(F)cc1	-3	103
25	O=C1CSc2ccccc2N1Cc1n[nH]c(=S)n1Cc1ccccc1	56*	99
26	O=C(Cn1c(=O)n(-c2cccc(Cl)c2)c(=O)n1CC(=O)N1CCCCC1)N1CCCCC1	8	101
27	COc1ccc(-c2nc(CN3CCC(C(=O)NC(C)C)CC3)c(C)o2)cc1OC	11	104
28	CCS(=O)(=O)c1ccc(O)c(NC(=O)Nc2ccccc2OC)c1	0	99
29	COc1ccccc1-n1c(CSc2ccccn2)nc2ccccc2c1=O	/	106
30	Cc1cc(C(=O)CSc2nc3ccccc3c(=O)n2CC(C)C)c(C)n1-c1nccs1	10	97

entry	PV pol inh intensity	Mtb MenB inh
16	122	-2
17	106	-9
18	106	-24
19	103	27
20	/	-57
21	102	0
22	107	0
23	108	-9
24	96	/
25	98	-30
26	103	10
27	101	-4
28	104	-14
29	99	-13
30	109	9

(cont.)
entry	SMILES	Mtb MbtI inh	PV pol inh
31	CSc1ccc(OC(=O)Nc2ccc(Cl)cc2)cc1	-2	102
32	CCN1CCN(C(=O)C2C3CCC(C3=C(C)C)C2C(=O)O)CC1 (configuration not stated)	-25	100
33	Cc1nc(=O)cc(-c2ccccc2)n1-c1ccccc1	-12	104
34	Cc1sc2ncnc(OCC(=O)N3CCN(S(=O)(=O)c4ccc(Cl)cc4)CC3)c2c1C	-3	105
35	COc1ccc(C(=O)OCC(=O)N2CCCC2=O)c(OC)c1	-8	104
36	CS(=O)(=NS(=O)(=O)c1ccccc1)c1ccccc1 (configuration not stated)	-8	98
37	CCOC(=O)N1CCC(NC(=O)Cn2nc(CC)n3c(cc4sc(CC)cc43)c2=O)CC1	-6	101
38	Cn1c(=N)n(CCCOc2ccc(F)cc2)c2ccccc21	-3	99
39	COC(=O)C12CC3CC(CC(C(=O)OC)(C1)C3=O)C2=O	3	103
40	O=C(O)c1sc2ccccc2c1Nc1ccccc1	4	100
41	CC1CCCC(C)N1Cn1nc2sc3ccccc3n2c1=S (configuration not stated)	98*	99
42	CC1CC2(C)CC(C)C1(COC(=O)Nc1ccccc1)CO2 (configuration not stated)	-13	102
43	C=Cc1ccc(C=C)cc1	72*	64*
44	O=c1c2ccccc2nnn1CN1CCCC1c1ccc2c(c1)OCCCO2 (configuration not stated)	41	103
45	CCN(CC)P1(=O)OC(c2cc(OC)c(OC)c(OC)c2)=Nc2c1c(C)nn2-c1ccccc1 (configuration not stated)	2	97

entry	PV pol inh intensity	Mtb MenB inh
31	105	-16
32	95	-10
33	106	/
34	109	-5
35	102	-5
36	103	-3
37	103	10
38	99	-10
39	103	-3
40	102	-16
41	101	4
42	104	-25
43	58*	23
44	96	-9
45	107	6

(further entries)
entry	SMILES	Mtb MbtI inh	PV pol inh
46	CN(c1ccc(O)cc1)c1nc(O)c(C2=c3ccccc3=NC2=O)s1	-12	100
47	O=C(NCC12CC3CC(CC(C3)C1)C2)N1CCN(CCO)CC1	-1	100
48	COc1cc2c3cc1Oc1cc(ccc1O)C[C@@H]1c4c(cc(OC)c(O)c4Oc4cccc(c4)C[C@@H]3N(C)CC2)CC[N+]1(C)C	-2	98
49	O=C(Nc1ccc(N2CCN(Cc3ccccc3Cl)CC2)cc1)c1ccco1	-10	98
50	CCN(CC)C(=O)/C=C/c1cccc2ccccc12	-9	99
51	c1ccc2c(OCc3nn[nH]n3)cccc2c1	62	101
52	Cc1cc(N2CCC(NS(=O)(=O)c3ccc(Cl)cc3)CC2)nc(C)n1	-3	104
53	CC1=C(C(=O)N(C)C)C(c2ccc(Br)cc2)n2c(nc3ccccc32)N1 (configuration not stated)	-2	99
54	Cc1ccccc1N=C1SCCCN1C(=O)c1ccc2c(c1)OCO2	-8	106
55	CCn1c2c(c3cc(OCC(C)C)ccc31)CCCC2=O	28	104
56	O=C(OCc1nnc(-c2ccccc2)o1)[C@@H]1CCCN1S(=O)(=O)c1ccc(Cl)cc1	-69	102
57	CCN(CC)C(=O)C1c2ccccc2Oc2ccccc21	/	98
58	Cc1nn(-c2ccccc2)c(Oc2ccc(F)cc2)c1/C=N/n1cnnc1	6	102
59	CCOP(=S)(OCC)Oc1cc(-c2ccccc2)on1	3	98
60	Cc1ccc(S(=O)(=O)NC(=NC2CCCCC2)c2ccccc2)cc1	-72	104

entry	PV pol inh intensity	Mtb MenB inh
46	101	-128
47	101	1
48	99	-6
49	103	-5
50	104	-7
51	102	-22
52	103	-44
53	98	-9
54	98	-2
55	101	-16
56	102	-5
57	108	-11
58	107	-15
59	101	-17
60	100	-5

Later entries.
entry	SMILES	Mtb MbtI inh	PV pol inh
61	N#Cc1ccccc1NC(=O)CN1C(=O)c2ccccc2C1=O	5	103
62	CCN1CCCC1CNc1ncnc2sc3c(c12)CCC3 (configuration not stated)	27	101
63	Cc1cc(C)n(-c2ccc(C(=O)Oc3ccc4c(c3)OCO4)cc2)n1	-7	103
64	Cc1cc(NC(=O)CSc2nnc(Cc3cccn3C)n2C)no1	4	100
65	c1ccc(-c2nonc2-c2ccccc2)cc1	-22	103
66	O=C(c1ccccc1)C(Sc1nnc(-c2ccc3c(c2)OCO3)o1)c1ccccc1 (configuration not stated)	-6	103
67	NC(=O)Cn1cnc2c(cnn2-c2ccc(Cl)cc2)c1=O	28	98
68	N#Cc1ccc(OCc2nnc3n2CCCCC3)cc1	-16	102
69	O=C(OCc1cc2c(cc1Br)OCO2)c1cnccn1	1	105
70	CCS(=O)(=O)N1CCc2cc(C(=O)Cn3ncc(Cl)c(Cl)c3=O)ccc21	6	101
71	COCCOc1nc2ccccc2nc1C	53	101
72	Cc1ccsc1C(=O)OCC(=O)NC1CC1	-9	100
73	Oc1ccc2cc(Br)ccc2c1	-4	100
74	CN1/C(=C\C(=O)CSCCO)C(C)(C)c2ccccc21	14	44
75	CC[C@@]12CCCN3CC[C@]4(c5cccc(OC)c5N(C(C)=O)[C@@H]4CC1)[C@H]32	/	106

entry	PV pol inh intensity	Mtb MenB inh
61	103	-1
62	98	-1
63	100	-26
64	97	15
65	103	-28
66	109	-11
67	102	-21
68	106	/
69	107	5
70	105	-10
71	102	-12
72	107	/
73	100	-44
74	233	-23
75	111	-9

Down the list, from the results shown:
PV pol inh intensity, compounds 66 to 75 → 109, 102, 106, 107, 105, 102, 107, 100, 233, 111
Mtb MenB inh, compounds 66 to 75 → -11, -21, /, 5, -10, -12, /, -44, -23, -9

(list continues)
entry	SMILES	Mtb MbtI inh	PV pol inh
76	CC(C)(C)c1oc(C(=O)O)cc1COCC(F)(F)F	-10	99
77	O=c1[nH]c(C2CCN(S(=O)(=O)Cc3ccccc3)CC2)nc2c1nnn2Cc1cccc(Cl)c1	-2	103
78	CC(C)CCn1c(COc2ccccc2)nn(CCC#N)c1=S	4	104
79	N#Cc1ccccc1OCC(=O)N1CCC(Cc2ccccc2)CC1	-1	100
80	N#Cc1ccc(OCC(=O)NCCOc2ccccc2F)cc1	8	104
81	C(=C\CN1CCCCC1)/CN1CCCCC1	0	101
82	Cc1cc(OCC(=O)N2C(C)CCCC2C)ccc1Cl (configuration not stated)	-23	105
83	CC(C(=O)Nc1ccc(S(N)(=O)=O)cc1)N(C)CC1COc2ccccc2O1 (configuration not stated)	6	100
84	C=CCNc1nc(C(=O)OCC(=O)N2CCCC2=O)cs1	3	103
85	O=C1C2ON(c3ccccc3)C(c3ccncc3)C2C(=O)N1c1cccc(Br)c1 (configuration not stated)	-8	99
86	CCCCN(CC)C(=O)c1ccc2c(=O)n(CC(C)C)c(=S)[nH]c2c1	7	95
87	C/C=C/C(=O)Nc1ccc(NC(C)=O)cc1	4	98
88	Cc1ccc(SCCC(=O)N2CCC(C(N)=O)CC2)cc1	/	100
89	N#Cc1cc(-c2nc(-c3ccccc3)cs2)c(N)nc1SCC(=O)c1ccc[nH]1	-8	106
90	Cc1nn(CC(=O)C23CC4CC(CC(C4)C2)C3)c(=O)c(C#N)c1C	4	100

entry	PV pol inh intensity	Mtb MenB inh
76	102	-21
77	102	-6
78	98	-2
79	99	/
80	109	-1
81	103	0
82	111	6
83	99	1
84	109	-25
85	107	-2
86	97	-54
87	100	14
88	102	-24
89	113	-61
90	95	-8

Looked up above.
Mtb MbtI inh, Cc1cc(OCC(=O)N2C(C)CCCC2C)ccc1Cl (configuration not stated) → -23
PV pol inh intensity, O=C1ON=C(c2ccccc2)/C1=C\c1ccc2c(c1)OCO2 → 105
Mtb MenB inh, O=C(CN1CCOCC1)Nc1nc(-c2ccc3c(c2)CCN3S(=O)(=O)c2ccccc2)cs1 → -77
PV pol inh, Nc1ccc(OC(F)(F)C(F)F)c(N)c1 → 99

Additional entries follow:
entry	SMILES	Mtb MbtI inh	PV pol inh
91	COc1ccc(C/C(C)=N/Nc2nc(C)cc(=O)[nH]2)cc1	-4	98
92	Cc1cc(C(=O)CN2CCN(c3cccc(Cl)c3)CC2)c(C)n1-c1ccc(S(N)(=O)=O)cc1	-5	104
93	COCCNC(=O)c1cn(C(C)c2ccccc2)nn1 (configuration not stated)	8	101
94	CC(C)N(CCc1ccncc1)C(=S)NCc1ccccc1	-5	101
95	CC(=O)N(c1ccc(C)c(C)c1)c1nc(CSc2nnnn2C2CCCC2)cs1	-3	102
96	COC(=O)COc1c(C)cc(Br)cc1Br	/	104
97	CNC(=O)NC(=O)C(C)Sc1nncn1-c1ccccc1 (configuration not stated)	8	101
98	O=C1NC(=O)C(c2ccccc2)C(=O)N1	-9	97
99	CCOC(=O)c1ccc(-c2ccc(/C=C(\C#N)C(=O)NCc3cccs3)o2)cc1	-24	101
100	O=C1c2cccc3cccc(c23)C(=O)N1c1ccccc1	/	105

entry	PV pol inh intensity	Mtb MenB inh
91	97	-1
92	104	-14
93	103	-35
94	102	-14
95	95	-20
96	102	5
97	102	5
98	102	-21
99	103	4
100	107	-2
